High-throughput results from PubChem BioAssay.
Arbovirus inh – arbovirus infection inhibition; arbovirus infection cell-based antiviral screen; inhibition, % at 10 µM; actives 0.37% (n = 200,000);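 active means inhibition from about 30%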;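 further: bluetongue infection of BSR cells; cell survival read as ATP light after 72 h; 0% = infected wells without compound and 100% = uninfected wells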
YopH inh – inhibitors of Yersinia enterocolitica YopH tyrosine phosphatase; fluorescence Ex485/Em525; inhibition, %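 (about 10 µM by stock and volumes)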; actives 0.16% (n = 140,000); AID 898;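 active means inhibition of 50% or more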;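 further: controls were vehicle for no effect and minimum signal wells for full effect; inactives centre near -20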
RecA intein inh – blocks M. tuberculosis RecA intein splicing | inhibition, %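 (about 9 µM by stock and volumes)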 | cell-free RecA intein splicing, fluorescence | actives 0.75% (n = 290,000) | P9WHJ3; in the data active means inhibition above about 30%; inconclusive means no clear call, values can overlap the other calls;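 further: 0% = vehicle wells and 100% = reference inhibitor control wells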
Target sequence (P9WHJ3 whole entry, looked up): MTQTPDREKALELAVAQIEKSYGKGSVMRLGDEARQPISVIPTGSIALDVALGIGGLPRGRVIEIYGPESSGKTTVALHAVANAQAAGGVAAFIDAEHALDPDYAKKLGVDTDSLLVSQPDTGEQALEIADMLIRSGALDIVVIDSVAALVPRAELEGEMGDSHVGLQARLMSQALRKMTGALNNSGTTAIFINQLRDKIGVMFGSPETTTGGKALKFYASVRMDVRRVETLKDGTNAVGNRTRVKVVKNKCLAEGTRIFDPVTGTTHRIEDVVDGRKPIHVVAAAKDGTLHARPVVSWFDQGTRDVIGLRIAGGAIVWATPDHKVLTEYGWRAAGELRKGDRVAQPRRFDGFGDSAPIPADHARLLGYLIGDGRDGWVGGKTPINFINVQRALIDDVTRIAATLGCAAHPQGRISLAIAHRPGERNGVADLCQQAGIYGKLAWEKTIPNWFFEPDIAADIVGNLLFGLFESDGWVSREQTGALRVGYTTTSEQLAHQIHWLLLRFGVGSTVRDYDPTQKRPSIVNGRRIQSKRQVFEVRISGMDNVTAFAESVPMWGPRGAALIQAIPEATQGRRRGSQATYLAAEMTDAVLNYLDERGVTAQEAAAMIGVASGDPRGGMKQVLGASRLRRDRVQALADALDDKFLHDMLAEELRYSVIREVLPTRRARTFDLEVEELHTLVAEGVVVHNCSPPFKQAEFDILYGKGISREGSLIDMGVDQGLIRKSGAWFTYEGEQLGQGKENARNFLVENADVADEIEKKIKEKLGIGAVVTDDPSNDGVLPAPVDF
Mtb growth – M. tuberculosis H37Rv growth inhibitors, H37Rv strain (AID 1626). actives 0.95% (n = 220,000). M. tuberculosis H37Rv growth inhibition; higher % means a stronger effect. one-dose inhibition, % at 10 µM; IC50 in µM for titrated hits;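 active means confirmed in a dose series; inconclusive means inhibition above 80% but not taken into the dose series; inactive means below 80% or under 30% at every dose of the series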;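 further: bacteria incubated seven days before Alamar blue readout; 0% = bacteria only wells and 100% = bacteria with antibiotic wells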
Mtb bLac sens – beta-lactam sensitization of Mtb H37Rv. M. tuberculosis H37Rv growth with meropenem, percent inhibition; hits of this screen are not shown here. inhibition, % at 25 µM. actives 0.27% (n = 330,000). AID 434955;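 active means about 74% or more and at least 40 points above the plate without the antibiotic, then above 30% in a dose series; inconclusive means first-round hits that could not be retested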;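 further: growth measured after seven days incubation then overnight dye step; 0% = bacteria only wells and 100% = bacteria with antibiotic; twin plates without the antibiotic show which effects depend on it; some results filed as inactive read as strong as hits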
Arbovirus inh repeat – second read-out of Arbovirus inh, no call of its own (marks repeat the call); inhibition, %; measured here: 10K subset replicate screen; many hits read low in the repeat;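 first of two repeat runs on a subset; 0% = infected and 100% = uninfected wells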
Numbers without * were called inactive; ? = inconclusive; . = not tested or not shown.

SMILES	Arbovirus inh	YopH inh	RecA intein inh	Mtb growth	Mtb bLac sens	others
O=C(NNC(=O)c1ccccc1F)c1ccc2[nH]c(=O)c(=O)[nH]c2c1	.	.	1.4	.	-10
Cc1ccc(S(=O)(=O)N2CCN(C(=O)N(C)C)CC2)cc1C	3	-97	-2.2	-6%	-19
O=C(Nc1ccccc1)C1=C(O)CC(c2ccco2)CC1=Nc1ccccc1 (centres undefined)	3	-18	-2.8	-2%	-6
COc1nc(-c2cccc([N+](=O)[O-])c2)nc2ccccc12	.	.	0.6	5%	6
Cc1ccc(NC(=O)CSc2nnc(NC(=O)C(C)C)s2)c(C)c1	.	.	-2.6	.	4
O=C(COc1ccccc1Cl)N(Cc1ccco1)C1CCS(=O)(=O)C1 (centres undefined)	6	-16	2.2	-2%	1
Cc1cccc(C(=O)NC2CCN(CC(=O)Nc3ccccc3Cl)CC2)c1	.	.	3.4	.	-12
COC(=O)C(NC(=O)CCc1nnc2ccc(N3CCC(C)CC3)nn12)C(C)C (centres undefined)	.	.	-0.1	.	9
CS(=O)(=O)c1ccccc1-c1nc(-c2cccc(Cl)c2)no1	1	.	1.6	-3%	0
CC(C)CCC(O)(c1ccccc1)C(CN1CCOCC1)c1ccccc1 (centres undefined)	.	.	8.1	.	6
COc1ccc(S(=O)(=O)N2CCCC2)cc1NC(=O)c1ccccc1F	.	.	2.6	.	1
CCc1ccccc1Nc1nc(N)nc(COC(=O)CCNS(=O)(=O)c2ccccc2)n1	.	.	1.7	.	-16
NC(=NCCc1ccccc1)NC(=O)c1cc(Cl)ccc1O	.	.	-13	.	37
CCOc1cc(C(N)=O)cc(Cl)c1OCC	9	.	2.3	2%	15
COc1ccc(S(=O)(=O)N2CCC[C@H]2C(=O)NCc2ccc(Cl)cc2)cc1	.	.	-0.5	5%	-5
Cc1onc(-c2ccccc2Cl)c1C(=O)Nc1cccc2cccnc12	-25	-19	29	8%	24
S=C(NCc1ccco1)N/N=C/c1cccnc1	.	.	0.7	-6%	-9
CCC(C)(C(=O)NC1CCCC1)N(Cc1ccco1)C(=O)c1ccccn1 (centres undefined)	-6	-42	-1.8	-3%	4
O=C(COC(=O)C1CCN(S(=O)(=O)c2cccs2)CC1)c1cc2ccccc2o1	7	-9	1.9	3%	14
Cc1ccc(C)c(C2NC(=O)c3ccccc3N2)c1 (centres undefined)	.	.	-5.2	0%	5
CC1Cc2nc(SCC(=O)Nc3ccc4c(c3)OCO4)n(CCc3ccccc3)c(=O)c2S1 (centres undefined)	-6	-27	4.5	3%	5	Arbovirus inh repeat=-1
CC(CN1CCC(n2nccc2NC(=O)c2ccccc2Cl)CC1)c1ccccc1 (centres undefined)	.	.	1.4	.	?
COc1cc2c(cc1NC(=O)CSc1nccn1C)oc1ccccc12	3	-10	0.6	11%	29
O=C1c2ccccc2C(=O)N1CCOc1ccccc1Cl	.	.	3.2	.	-3

Twelve compounds from above, ordered by length of the SMILES, lowest first:
SMILES	Arbovirus inh	YopH inh	RecA intein inh	Mtb growth	Mtb bLac sens	others
CCOc1cc(C(N)=O)cc(Cl)c1OCC	9	.	2.3	2%	15
S=C(NCc1ccco1)N/N=C/c1cccnc1	.	.	0.7	-6%	-9
O=C1c2ccccc2C(=O)N1CCOc1ccccc1Cl	.	.	3.2	.	-3
NC(=NCCc1ccccc1)NC(=O)c1cc(Cl)ccc1O	.	.	-13	.	37
COc1cc2c(cc1NC(=O)CSc1nccn1C)oc1ccccc12	3	-10	0.6	11%	29
CS(=O)(=O)c1ccccc1-c1nc(-c2cccc(Cl)c2)no1	1	.	1.6	-3%	0
COc1ccc(S(=O)(=O)N2CCCC2)cc1NC(=O)c1ccccc1F	.	.	2.6	.	1
CCC(C)(C(=O)NC1CCCC1)N(Cc1ccco1)C(=O)c1ccccn1 (centres undefined)	-6	-42	-1.8	-3%	4
CC(CN1CCC(n2nccc2NC(=O)c2ccccc2Cl)CC1)c1ccccc1 (centres undefined)	.	.	1.4	.	?
COC(=O)C(NC(=O)CCc1nnc2ccc(N3CCC(C)CC3)nn12)C(C)C (centres undefined)	.	.	-0.1	.	9
O=C(COC(=O)C1CCN(S(=O)(=O)c2cccs2)CC1)c1cc2ccccc2o1	7	-9	1.9	3%	14
CC1Cc2nc(SCC(=O)Nc3ccc4c(c3)OCO4)n(CCc3ccccc3)c(=O)c2S1 (centres undefined)	-6	-27	4.5	3%	5	Arbovirus inh repeat=-1

Additional results follow.
SMILES	Arbovirus inh	YopH inh	RecA intein inh	Mtb growth	Mtb bLac sens	others
O=C(N/N=C/c1ccccc1F)NC12CC3CC(CC(C3)C1)C2	.	.	1.0	.	100
CC(C)(CNc1ccc(S(=O)(=O)C(F)(F)F)cc1[N+](=O)[O-])N1CCOCC1	.	.	4.3	.	-4
COc1ccccc1CNc1nc(=S)[nH]c2cc(OC)c(OC)cc12	.	.	-1.4	.	-3
O=C(c1ccccc1Oc1nnnn1-c1ccccc1)N1CCOCC1	7	-19	1.6	-7%	-3
CC(=O)Nc1nc(-c2ccccc2)ns1	-5	28	-0.8	2%	8
COc1ccccc1N1CCN(S(=O)(=O)CCNC(=O)c2cccc(F)c2)CC1	.	.	0.2	.	-9
COc1ccc(CN2CCOCC2)cc1	-9	-24	4.3	-10%	-4
COc1ccc(NC(=O)Cc2nnc(SCC(=O)NC3CCCCC3C)n2C)cc1 (centres undefined)	.	.	3.4	.	-3
O=C(CN1C(=O)COc2ccc(S(=O)(=O)N3CCOCC3)cc21)NCc1ccco1	.	.	-0.6	-4%	-2
CN(C(=O)COC(=O)c1cccs1)c1c(N)n(Cc2ccccc2)c(=O)[nH]c1=O	.	.	-2.4	.	-6
O=C(c1ccc(Cl)c(S(=O)(=O)NCc2ccco2)c1)N1CCN(c2ccccc2F)CC1	7	-4	2.3	3%	-1
CN(C)C(=O)NC(Nc1cccc([N+](=O)[O-])c1)C(Cl)(Cl)Cl (centres undefined)	5	.	1.7	-13%	-3
O=[N+]([O-])c1ccc(C2=Nn3cnnc3SC2)cc1	.	.	5.3	-10%	-3
Fc1ccc(CN2CCN(c3ncccn3)CC2)c(F)c1	.	.	-0.4	.	-4
Cc1ccsc1C(=O)C1CCCN(Cc2cn(C)nc2C)C1 (centres undefined)	1	.	0.0	4%	1
Cc1c(OCc2nn[nH]n2)ccc2c3c(c(=O)oc12)CCCC3	0	-54	-2.4	-3%	5
CCOC(=O)c1c(/N=C/C2=C(O)CCCC2=O)sc2c1CCCC2	.	.	.	1%	-1
O=[N+]([O-])c1ccc(N/N=C/C=C/c2ccco2)cc1	.	.	-19	.	100
COc1ccc(S(=O)(=O)N2CCN(C(=O)c3cc(-c4ccccc4OC)n[nH]3)CC2)cc1	.	.	3.5	.	?
Cn1cc(C[C@H](NC(=O)OC(C)(C)C)C(=O)N[C@H](CO)Cc2ccccc2)c2ccccc21	.	.	0.7	-4%	1
Cc1nn(CCOc2ccccc2)c(=O)n1-c1cccc(F)c1	5	-37	-3.5	-8%	-3
O=C(COC(=O)CCc1c[nH]c(=O)[nH]1)Nc1cccc(Cl)c1	7	-30	-0.5	-5%	-11
Cc1cc(NC(=O)c2ccccc2C)n(-c2cccc(F)c2)n1	.	.	-1.8	.	0
CCc1nc(N2CCN(S(=O)(=O)c3ccc(Br)cc3)CC2)c2c(C)c(C)sc2n1	.	-17	7.1	4%	10
COC(=O)COc1ccc(-n2cnnn2)cc1	2	.	-0.9	0%	6
O=C(CN1CCN(Cc2ccc(F)cc2Cl)C1=O)NCc1cccs1	-1	.	2.9	4%	-7
Cc1[nH]c2ccc(F)cc2c1CCN(Cc1ccncc1)C(=S)Nc1ccccc1	14	.	4.0	4%	29
Cc1ccc(N=C2NC(=O)S/C2=C\c2ccco2)cc1	-17	-23	5.8	-3%	1
Cc1ccccc1-n1ncc(C(C)NC(=O)c2ccccc2)c1C (centres undefined)	-3	.	3.5	-1%	-7
COc1ccccc1NC(=O)Cn1cc(C(=O)C(=O)N2CCOCC2)c2ccccc21	.	.	0.4	.	2
CCc1cc(C(=O)N2CCCC(C(=O)c3ccc(Cl)cc3)C2)no1 (centres undefined)	.	.	0.9	.	0
O=C(COC(=O)c1cccc(Br)c1)NCCC1=CCCCC1	3	.	3.2	9%	-3
Clc1ccc(OCCCCN2CCc3ccccc3C2)cc1	7	.	7.8	7%	-1
CC1Cc2ccccc2N1C(=O)CCn1cccn1 (centres undefined)	.	.	1.9	.	-8
Nc1c(C(=O)N2CCOCC2)oc2ccccc12	.	.	-1.6	.	-1
O=C(c1cc2nc(-c3ccco3)cc(C(F)(F)F)n2n1)N1CCN(c2ccccc2)CC1	20	-27	1.1	11%	6
Cc1cc(C)cc(N2C(=O)C3C4C=CC(C4)C3C2=O)c1 (centres undefined)	11	-33	1.2	-1%	-15
Cc1ccc(C)c(S(=O)(=O)N2CCCC2CNC(=O)C(=O)NCCN2CCOCC2)c1 (centres undefined)	.	.	-2.0	.	-6
Cc1ccc(S(=O)(=O)N2CCC(C(=O)Nc3nnc(-c4ccco4)s3)CC2)cc1	0	-29	3.0	-8%	-3
O=C(Nc1ccn(Cc2ccccc2F)n1)c1ccc(COc2ccc(Cl)cc2Cl)o1	-32	-25	-0.6	34µM*	53
COc1ccccc1CN(C)C(C)C(=O)Nc1cccc(C(C)=O)c1 (centres undefined)	2	.	1.7	5%	-5
CCSc1ccccc1C(=O)Nc1ccc([N+](=O)[O-])cc1OC	-21	.	0.5	7%	77
CCN1CCN(c2nc3c(c(=O)[nH]c(=O)n3C)n2Cc2ccccc2F)CC1	.	.	-8.2	.	0
O=C(c1ccc(NS(=O)(=O)c2ccc3[nH]c(=O)[nH]c3c2)cc1)N1CCCC(C(F)(F)F)C1 (centres undefined)	.	.	0.3	.	-13
CCOc1cc2c3c(c1)C(C)=CC(C)(C)N3C(=O)C2=O	-12	.	8.2	2%	6
CCOC(=O)N1CCN(S(=O)(=O)c2ccc(-n3cnnn3)cc2)CC1	.	.	2.1	.	-1
COc1cccc(/C=C2/SC(=S)N(CC(=O)NC3C=CS(=O)(=O)C3)C2=O)c1 (centres undefined)	.	.	-1.9	.	-5
CCN(CC)C(=O)CSc1nnc(-c2cccc(OC)c2)o1	4	-28	0.2	0%	-3
COC(=O)C1=NN(N=O)C2(CC(=O)N(c3cc(C)cc(C)c3)C2=O)C1 (centres undefined)	4	-31	-0.5	-18%	-15
CN(C)CCNC(=O)c1onc(CSc2ccc(F)c(F)c2)c1C(=O)NCCN(C)C	.	.	-1.9	-10%	2
O=C(O)c1ccc(NC(=O)C(c2ccccc2)c2ccccc2)cc1	.	.	-0.7	.	1
Cc1ccc(S(=O)(=O)NCCc2ccccc2)cc1	8	-8	1.9	6%	-1
Cc1cc(C)c2[nH]c(=O)c(CN(CC3CCCO3)C(=S)NCc3ccco3)cc2c1 (centres undefined)	-5	-12	-0.7	2%	-3
CC(=O)Nc1nonc1NC(=O)CSc1ccccn1	0	-18	-2.5	-1%	-1
Cc1cc(-c2nn(-c3ccccc3F)cc2CN2CCN(c3ccncc3)CC2)c(C)s1	-15	.	-6.5	3%	89
CNC(=O)COc1ccc(S(=O)(=O)Nc2ccc(C)cc2)cc1	.	.	1.3	0%	-2
Cc1ccccc1C(=O)NNC(=O)Nc1ccccc1	-1	.	-0.5	4%	-4
CCC1C(=O)NCCN1C(=O)c1cccc(OC2CCN(S(=O)(=O)N(C)C)CC2)c1 (centres undefined)	.	.	-2.2	.	4
COc1ccc(NC(=O)NCc2ccc(Cl)cc2)cc1	.	.	-1.4	.	1
CC(c1ccccc1)n1cc(C(=O)NCc2cccnc2)nn1 (centres undefined)	4	-20	0.6	-4%	-6

Continuation.
SMILES	Arbovirus inh	YopH inh	RecA intein inh	Mtb growth	Mtb bLac sens	others
CCOC(=O)c1cc(CC)sc1NC(=O)CC1SC(N)=NC1=O (centres undefined)	-8	.	-2.9	1%	-4
COc1ccc(-c2[nH]ncc2CNCc2cc(C)n(C)n2)c(F)c1	-5	.	-0.3	2%	1
Cc1ccc(NC(=O)CCC(=O)OCc2ccc(Br)cc2)cc1	-1	-26	0.7	-4%	1
O=C(NCCOc1ccccc1)C(=O)NCC1CCCO1 (centres undefined)	0	.	-2.1	0%	1

These rows are one share of the data; count on the stated rates, not on these rows.
